Assay outcomes deposited in PubChem by ICCB-Longwood Screening Facility, Harvard Medical School.
CapD inh = Bacillus anthracis CapD inhibitors, primary screen, biochemical, fluorescence intensity; CapD gamma-glutamyltranspeptidase (Bacillus anthracis Ames Ancestor); purified CapD enzyme, fluorescence intensity read-out; active compounds read low; some hits fall short of the stated cut; z-score (no concentration beside the values); hit rate 0.23% among 140,000; AID 492967, 2010;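 active means z-score under -4 in either of two replicates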;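 further: stock transfer was 100 nL into about 40 µL; score is relative to mean and spread of the plate; one replicate is shown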
AID504770 = growth inhibition of E. coli YBA685, primary screen, V. cholerae RctB inhibitors; E. coli YBA685 rctB-dependent plasmid, OD600 growth, 3 h; active compounds read low; z-score (concentration not given with the values); hit rate 0.27% among 130,000;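 active means z-score under -2 on both plates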;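 further: wells of about 30 µL received 100 nL stock; score is relative to mean and SD of the test wells; the first replicate is given; strong numbers were not always called active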
Starred values were filed as active, the others as inactive; nt = not tested or not shown; & = joins results of further samples.

molecule,CapD inh,AID504770
CC(=O)OC[C@H]1O[C@@H](n2cc(C)c(=O)[nH]c2=O)C[C@@H]1OC(C)=O,-0.035,1.25
CSc1nc2c(c(=O)n1C)SC(C)C2 (centres undefined),-0.895,0.8
Cc1nc(C(=O)Nc2ccc(Cl)cc2Cl)nn1-c1ccc(F)cc1F,-0.515,nt
O=C(/C=C/c1cccs1)NC1CC1,nt,-1.25
CCCCN(C(=O)c1ccccc1)C1CC2CCC(C1)N2C (centres undefined),0.58,0.35
c1ccc(-c2cc3c(N4CCc5ccccc54)ncnc3s2)cc1,11.2,0.75
O=c1[nH]n(-c2ccccc2)c(=O)c2ccccc12,-0.3,-0.15
CC(C)c1ccc(NC(=O)CN2CCN(c3ccc(C(F)(F)F)cn3)CC2)cc1,0.005,nt
CCCCN1Cc2cc(C(=O)c3cc(OC)ccc3O)cnc2NC1=O,nt,2.8
COC(=O)c1cc(NC(=O)c2ccco2)ccc1N1CCOCC1,-0.865,nt
O=C(O)c1cccc(S(=O)(=O)NOCc2ccccc2)c1,nt,1.95
COCc1nc2c([nH]1)C(c1ccccc1COc1ccc(Cl)cc1)C(C#N)=C(N)O2 (centres undefined),-0.135,-0.8
CCN=c1cc(N)n(CC)c2sc(C(=O)OCC)c(N)c12,-0.515,1.9
O=C(O)C1CCC(N2C(=O)C3C4C=CC(C4)C3C2=O)CC1 (centres undefined),nt,0.75
CCN(CC)C(=O)COc1c(-c2ccco2)oc2ccccc2c1=O,nt,-0.55

Full records from above. Order of values: CapD inh	AID504770
O=c1[nH]n(-c2ccccc2)c(=O)c2ccccc12 is listed with -0.3	-0.15
CCN=c1cc(N)n(CC)c2sc(C(=O)OCC)c(N)c12 is listed with -0.515	1.9

Going on with the list.
molecule,CapD inh,AID504770
CNC(=O)CN(C#N)c1nc(C)cc(C)n1,nt,1.95
COc1ccc(/C=C\C(=O)Nc2c3c(nn2-c2ccc(Cl)cc2)CS(=O)(=O)C3)cc1OC,20.2,nt
CCOC(=O)C1=C(Nc2ccc(OC)cc2)OCC1=O,0.44,-0.8
CC(=O)Nc1nnc(SCC(=O)Nc2ccccc2)s1,-0.03,-0.25
COCC(C)N=C1NN=C(c2cc(C)n(-c3cc(C(=O)OC)cc(C(=O)OC)c3)c2C)CS1 (centres undefined),nt,0.1
CC(C)Nc1ncnc2c1cnn2-c1ccc(Cl)cc1,-0.195,-0.15
Cc1cc(C(=O)CSc2nnc(C3CC3)n2C2CC2)c(C)s1,nt,-0.55
O=C(O)CC1(CC(=O)N2CCN(C(c3ccccc3)c3ccccc3)CC2)CCCC1,-0.755&-0.27,0.45
O=C(COC(=O)c1ccc2[nH]c3c(c2c1)CCCC3)NCc1ccco1,nt,-0.25
COC(=O)c1cc(S(=O)(=O)NCCCc2ccco2)c[nH]1,0.535,-0.5
COC(=O)c1c(C)oc2ccc(N(C(C)=O)S(=O)(=O)c3ccc4ccccc4c3)cc12,0.965,2.35
FC(F)(F)c1cccc(C2N(Cc3ccccc3)CCN2Cc2ccccc2)c1,-0.205,nt
N/C(CSc1ccc(Cl)cc1)=N\S(=O)(=O)c1ccc(Cl)cc1,0.385,0.3
CN=C(C)/C(C(=O)OC)=C(/O)c1snnc1C,-2.26,2.8
COc1cc(C)c(S(=O)(=O)N2CCN=C2c2ccccc2)cc1C,0.275,-1.1
COc1ccccc1/C=C/C=c1\sc2nc(-c3cc(OC)c(OC)c(OC)c3)nn2c1=O,-0.6,-0.35
O=C1CC(c2ccccc2)=Nc2ccccc2N1,-0.775,nt
C/C(=N\N=C(N)N)c1cccs1,-0.47,-0.95
COCc1c(C(=O)NCc2nnc3ccccn23)oc2ccccc12,nt,-0.1
CN1CCC(N2CCCCC2)CC1,0.4,0.55
CC1(NC(=S)NCCO)CCS(=O)(=O)C1 (centres undefined),0.05,0.55
CCc1ccc(S(=O)(=O)Nc2ccc3oc4c(c3c2)CCC(C)C4)cc1 (centres undefined),-0.34,nt
CC(C)(C)c1cc(C(C)(C)C)n(-c2ccc(C(=O)NNC(=O)Cn3cnc(Cl)c3Cl)cc2)n1,-0.72,nt
Cc1ccc(CCN2CC(C(=O)O)CC2=O)cc1 (centres undefined),0.255,-1.05
COc1ccc(S(=O)(=O)N2CCCC(c3nc4ccccc4c(=O)[nH]3)C2)cc1 (centres undefined),2.88,-0.3
Cc1cc[n+](C2C(c3ccc([N+](=O)[O-])cc3)C(C#N)=C([S-])NC2(O)C2CC2)cc1 (centres undefined),5.75,nt
O=C(/C=C/c1ccccc1)OCC(=O)N1CCc2ccccc21,-0.31,-1.1
Clc1ccc2nc(N3CCCNCC3)sc2c1,-0.63,nt
CC1CCN(C(=O)c2cccc(Nc3nc4ccccc4n4nnnc34)c2)CC1,2.98,-1.55
O=C1SCC(c2ccccc2)S1 (centres undefined),nt,-0.75
S=C(NCc1ccc2[nH]c3c(c2c1)CCCC3)Nc1ccccc1,0.47,-0.1
CC(C(=O)NC1CCCCC1)N1C(=O)C2C3C=CC(C3)C2C1=O (centres undefined),-0.395,1.2
CSC1=C(C#N)C(O)(c2cccs2)N=C(C(F)(F)F)N1 (centres undefined),-0.1,-0.4
O=C(/C=C/C(=O)Nc1ccc(F)c(Cl)c1)Nc1ccc(F)c(Cl)c1,0.155,1.55
C/C(=C\C(=O)C(F)(F)F)NCc1ccc(S(N)(=O)=O)cc1,nt,-0.35
O=C(NCCc1ccccc1)c1ccc2cn[nH]c2c1,-1.66,0.55
O=c1nc(N2CCOCC2)nc(Nc2ccc3ccccc3c2)[nH]1,5.25,0.35
CCC1(C)NC(=O)N(NC(=O)c2ccc(S(=O)(=O)N3CCCC3)cc2)C1=O (centres undefined),nt,0.95
COC(=O)C(NC(=O)NC1CCCCC1)C(C)C (centres undefined),-0.825,2.4
COC(=O)C1=C(C)NC2=C(C(=O)CC(C)(C)C2)C1c1ccc(OCc2ccc([N+](=O)[O-])cc2)c(OC)c1 (centres undefined),9.02,nt
CCN(CCC#N)c1ccc(CNCCCn2cnc3ccccc32)c(C)c1,nt,0.3
N#CCc1ccc(NC(=O)CCC(=O)O)cc1,0.51,0.65
CCC(=O)NC1=NC(=O)/C(=C/c2cc3c(cc2Br)OCO3)S1,-0.095,nt
N#CCC(=O)NCCc1ccccc1,0.235,-0.15
COc1cc(C2C(C(=O)Nc3ccc(C)cn3)=C(C)NC3=C2C(=O)CCC3)ccc1OCc1ccccc1 (centres undefined),34.5,nt
CSc1cccc(NC(=O)CN2C(=O)CCc3ccccc32)c1,-0.375,-0.95
Cc1nnc(SC2CCN(S(=O)(=O)c3ccc(F)cc3)CC2)s1,0.415,0.75
Cc1ccc2cc(C)c(C)cc2c1,-0.345,nt
N#CCn1c(CSc2nc3cc(Cl)ccc3n2Cc2ccccc2)nc2ccccc2c1=O,nt,0.05
COc1ccccc1N1CCN(C(C)C(=O)Nc2ccccc2-c2ccccc2)CC1 (centres undefined),nt,-0.45
COc1ccnc(N=CNOCc2cccc(Cl)c2Cl)c1C#N,-0.13,nt
COc1cccc(-n2c(=S)sc3c2nc(SCC(=O)Nc2ccc(N(C)C)cc2)n2c4ccccc4nc32)c1,-0.075,nt
CCCCCOc1ccc(/C=C/C(=O)N(CCO)CCO)cc1,nt,0.35
COC(=O)c1nn(-c2ccccc2)c(Sc2ccc(OC)cc2)c1/C=N/O,-0.18,nt
Cc1[nH]nc2nc(SCc3cc(=O)n4ccccc4n3)n(-c3ccc(Br)cc3)c(=N)c12,4.3,nt
FC(F)(F)c1cc(-c2ccccc2)nc2c(-c3ccccc3)cnn12,1.4,-0.25
CCC(O)(c1ccc(OC)cc1)C(CN1CCCC1)c1ccccc1 (centres undefined),-0.08,0.1
CC(C)NC(=O)c1ccc(CS(=O)(=O)c2c(Cl)cccc2Cl)o1,8.34,-0.5
C=CCC1NCCc2c(Br)cccc21 (centres undefined),-0.605,-0.3
CCCCC(C(=O)N/N=C/c1ccc(OCC)c(OC)c1)C(=O)N/N=C/c1ccc(OCC)c(OC)c1,0.785,nt

(listing goes on)
molecule,CapD inh,AID504770
COC(=O)C1=C(C)NC(S)=C(C#N)C1c1cccnc1 (centres undefined),34.9,1.65
O=C(c1cnc2sc(N3CCCCC3)nn2c1=O)N1CCCC1,104,0.4
COc1ccc(NC(=O)CN2C(=O)C(C)Oc3ccccc32)cc1 (centres undefined),nt,1.35
Cc1ccc(-n2c(SCC(=O)N3CCCCC3)nc3c([nH]c4ccccc43)c2=O)cc1,-0.11,-1
O=C(CN1CCC(Cc2ccccc2)CC1)Nc1ccc2c(c1)OCO2,nt,-0.5
CC1CC(C)CN(CC(=O)Nc2ccnn2C(C)C)C1 (centres undefined),nt,-0.4
CC(NC(=O)c1ccc(Cl)cc1Cl)C(=O)NC1CCCCC1 (centres undefined),-0.51,-0.05
CCCCN1CCc2c1nc1ccc(Br)cc1c2N,0.015,-0.7
Cc1cc(C)c(C#N)c(SCCS(=O)(=O)c2ccc(C(C)(C)C)cc2)n1,-0.365,nt
CCOC(=O)c1oc2ccccc2c1CSc1nnc2n(Cc3ccc(C)cc3)c(=O)c3ccccc3n12,nt,0.15
Cn1cc(C(=O)c2ccccc2)cc1-c1nc2ccccc2n1C,nt,-0.5
C=CCNC(=O)CCN1C(=O)COc2ccccc21,1.42,-0.25
CC(C)(C)OC(=O)C(CC(N)=O)NC(=O)OCCCCc1ccccc1 (centres undefined),0.155,nt
C[C@]1(O)NC([S-])=C(C#N)C(c2ccc(Cl)cc2)C1[n+]1ccccc1 (some centres undefined),0.74,0.05
NC(=O)c1sccc1NS(=O)(=O)c1ccc(Cl)c(Cl)c1,-0.11,-0.1

7 records picked at random from those above, as already listed:
molecule,CapD inh,AID504770
O=C(O)CC1(CC(=O)N2CCN(C(c3ccccc3)c3ccccc3)CC2)CCCC1,-0.755&-0.27,0.45
CSc1cccc(NC(=O)CN2C(=O)CCc3ccccc32)c1,-0.375,-0.95
Cn1cc(C(=O)c2ccccc2)cc1-c1nc2ccccc2n1C,nt,-0.5
CC1CCN(C(=O)c2cccc(Nc3nc4ccccc4n4nnnc34)c2)CC1,2.98,-1.55
C[C@]1(O)NC([S-])=C(C#N)C(c2ccc(Cl)cc2)C1[n+]1ccccc1 (some centres undefined),0.74,0.05
C/C(=N\N=C(N)N)c1cccs1,-0.47,-0.95
Cc1cc(C(=O)CSc2nnc(C3CC3)n2C2CC2)c(C)s1,nt,-0.55

Further structures
molecule,CapD inh,AID504770
O=C(O)c1ccccc1NCN1C(=O)c2ccccc2C1=O,51.8,0.55
Cc1c(C(=O)Nc2nc3ccccc3s2)oc2c1C(O)CC(C)(C)C2 (centres undefined),13.3,-0.95
Cc1cccc(C)c1NC1=NCCCS1,24.5&-0.91,1.55
CC1CN=C(SCc2ccc(Cl)cc2)N1 (centres undefined),0.33,nt
O=S(=O)(c1ccc2c(c1)OCCO2)N1CCN(C(=S)Nc2cccc(Cl)c2)CC1,nt,-0.1
CCCCCCn1c(=O)[nH]c2nc3cc(N)c(C)cc3nc2c1=O,-1.5,0
COc1ccc(CNc2ccc(C(=O)N3CC(C)CC(C)C3)cc2S(=O)(=O)Nc2cccc(OC)c2)cc1 (centres undefined),1.84,nt
CCCN1CCN(C(=O)C2CCS(=O)(=O)C2)CC1 (centres undefined),nt,-0.45
c1ccc(CSc2nc(NC3CCCCC3)c3sccc3n2)cc1,-0.305,nt
O=c1cc(C(F)(F)F)[nH]c2ccc(Br)cc12,0.835,-0.95
CC1(C)Cc2c(sc3nc(NCCCO)[nH]c(=O)c23)CO1,73.6,-0.7
CCN(CC)S(=O)(=O)c1ccc(C(=O)Nc2nccs2)cc1,1,-0.05&-0.35
Cc1cccc(CSCC(=O)O)c1,nt,-0.55
CCOc1ccc(N(CC(=O)NC2CCCCCC2)S(=O)(=O)c2c(C)[nH]c(=O)[nH]c2=O)cc1,-0.46,-1.05
CSC(=Nc1cccc(C(F)(F)F)c1)SC,-0.015,-0.2
O=C(CN1C(=O)C2CC=CCC2C1=O)Nc1ccc(S(=O)(=O)NC2=NCCCCC2)cc1 (centres undefined),nt,1
CCOC(=O)C1=C(c2ccccc2)N=c2s/c(=C\c3ccco3)c(=O)n2C1c1cccc(OC)c1 (centres undefined),0.065,-0.75
Cc1csc(NC(=O)C(C)Oc2ccccc2)n1 (centres undefined),0.41,-0.15
O=C1CCC2(C(=O)O)c3[nH]c4ccccc4c3CCN12 (centres undefined),nt,-0.8
COc1ccc(C2Nc3ccc(C(=O)c4ccccc4)cc3NC3=C2C(=O)CC(C)(C)C3)cc1OC (centres undefined),-0.945,nt
CCN(CC)C(=O)c1ccc(NS(=O)(=O)CC)cc1,nt,0
Cc1nn(Cc2ccccc2Cl)c2sc(C(=O)NCCCn3ccnc3)cc12,nt,-0.2
NC(N)=NCCn1ccc2ccccc21,0.42,0.4
Cn1c(C(=O)NCc2ccccn2)cc2cc(S(C)(=O)=O)ccc21,0.18,nt
CCOc1ccc2nc(SCc3c[nH]c4ccccc34)sc2c1,-2.1,0.8
O=S(=O)(NC(=NCCc1ccccn1)Nc1cccc(Cl)c1)c1ccccc1,0.09,-1.1
CCCOc1ccccc1/C=N/NC(=S)Nc1ccc(F)cc1,2.6,nt

Not all compounds are listed; the hit share may differ from the screen's.
